Compound activity: PubChem, National Center for Advancing Translational Sciences (NCATS)
VDR inh = inhibitors of human vitamin D receptor. VDR-SRC2-3 peptide fluorescence polarization, 2 h. actives 0.93% (n = 400,000). AID 504847. Potency, µM, inactives show max response, negative = inhibition, actives largely listed as inhibitors. P11473; active means well fitted inhibition curve with a large enough effect; inconclusive means small, poorly fitted or top-dose-only effect, or another doubt; inactive means no such curve, though single readings can be large or run the other way; further: series mostly up to about 120 µM
Target sequence (P11473 whole entry, looked up): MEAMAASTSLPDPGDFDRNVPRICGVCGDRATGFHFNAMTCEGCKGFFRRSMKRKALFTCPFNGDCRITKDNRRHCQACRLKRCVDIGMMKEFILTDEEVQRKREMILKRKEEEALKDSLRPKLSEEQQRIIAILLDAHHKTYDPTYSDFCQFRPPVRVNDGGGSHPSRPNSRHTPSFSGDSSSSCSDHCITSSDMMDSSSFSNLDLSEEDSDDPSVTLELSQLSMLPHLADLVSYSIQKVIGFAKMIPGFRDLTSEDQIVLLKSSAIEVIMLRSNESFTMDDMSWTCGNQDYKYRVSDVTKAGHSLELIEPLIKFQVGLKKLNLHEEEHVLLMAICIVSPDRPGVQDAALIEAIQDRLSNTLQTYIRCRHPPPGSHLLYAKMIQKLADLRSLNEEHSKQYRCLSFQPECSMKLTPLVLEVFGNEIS
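The screen uses fluorescence polarization to detect compounds that interfere with recruitment of the SRC2-3 coactivator peptide to VDR; plates are read after 2 h at room temperature.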
* marks the source's active call; other numbers are inactive results; u = inconclusive; & = joins results of further samples. On the % scale 0 is the no-effect control and ±100 the full control effect; potency means the concentration at half of the fitted maximal effect.

SMILES	VDR inh
COC(=O)c1sc(-c2ccc(Cl)cc2)cc1NC(=O)/C=C/C(=O)O	32µM*
COc1cc(Br)c(CC(=O)NC2CC2)cc1OC	2%
COCCNc1nc(C)cc(-c2cc(C(=O)NCc3ccccc3)on2)n1	1%
Cc1cc(Br)ccc1OCCCCN1CCC(C)CC1	5%
Cc1c(C(=O)OCC2CCCCC2)[nH]c2c1C(=O)CC(c1ccccc1Cl)C2 (stereo not given)	-15%
COc1cc(CNCCc2ccc(S(N)(=O)=O)cc2)ccc1OCC(=O)NC(C)(C)C	-4%
Cc1ccc(-c2nnc(NC(=O)c3ccco3)s2)cc1	9%
O=S(=O)(/N=C(/Nc1cc(N2CCOCC2)ncn1)c1ccc(F)cc1)c1ccccc1	-16%&16%
Cc1ccc(N(C)S(=O)(=O)c2cc3c(cc2C)NC(=O)CO3)cc1	-10%
O=S(=O)(NCc1csc(-c2cccnc2)n1)c1ccc(Br)cc1	5%
CCN(C(=O)COC(=O)CCOc1cc(C)ccc1C)c1c(N)n(Cc2ccccc2)c(=O)[nH]c1=O	19%
CC1(C)CC(=O)C/C(=N/NC(=O)c2ccc(-c3ccccc3)cc2)C1	1%
CC[C@@]1(c2ccccc2OC)ON(c2ccccc2C(F)(F)F)C1=O	-8%
O=C(CN1C(=O)NC2(CCCC2)C1=O)Nc1ccc(F)c(Cl)c1	3%
CCC(=O)N1CCc2cc(S(=O)(=O)NCCC(=O)Nc3ccc(C)cc3C)ccc21	-5%
O=C(CC1SC(=Nc2ccccc2)N(CCCO)C1=O)Nc1ccc(Cl)cc1 (stereo not given)	12%
O=C(CCCc1ccccc1)NC1CC(=O)N(c2cccc(F)c2)C1 (stereo not given)	23%
C(=C\c1nc(-c2ccncc2)no1)/c1ccccc1	15%
CCOC(=O)C(CCCP(=O)(c1ccccc1)c1ccccc1)(NC(C)=O)C(=O)OCC	-2%
COc1cc(C2C(C(=O)c3ccco3)=C(O)C(=O)N2c2cc(C)on2)cc(Br)c1O (stereo not given)	-9%

Random excerpt: two entries already listed.
SMILES	VDR inh
CCC(=O)N1CCc2cc(S(=O)(=O)NCCC(=O)Nc3ccc(C)cc3C)ccc21	-5%
O=S(=O)(/N=C(/Nc1cc(N2CCOCC2)ncn1)c1ccc(F)cc1)c1ccccc1	-16%&16%

The listing continues.
SMILES	VDR inh
COc1ccc(C2=CSC3=NCCN23)cc1F	2%
O=C(COc1ccc(S(=O)(=O)Nc2ccccc2)cc1)NCc1ccncc1	4%
Cc1ccc(S(=O)(=O)Cn2nnnc2C(C(C)C)N2CCC(C(N)=O)CC2)cc1 (stereo not given)	u
COCCn1cnc2c1c(=O)n(CC(=O)c1ccc3c(c1)OCCO3)c(=O)n2Cc1ccccc1	26%
CCOC(=O)c1cc2c(=O)n3ccccc3nc2n(Cc2ccco2)c1=NC(=O)c1ccccc1Br	u
COc1ccc(C)cc1NC(=O)CN(c1ccccc1F)S(C)(=O)=O	-5%
COC(=O)[C@]1(Cc2ccccc2)N[C@H](CN(C)C(=O)Nc2ccc(C)cc2)[C@@H]2C(=O)N(C)C(=O)[C@@H]21	7%
COC(=O)c1ccc(N2C(=O)CC(N(C)Cc3ccccc3)C2=O)cc1 (stereo not given)	-1%
CCCCn1c(N)c(N(CCOC)C(=O)COC(=O)C(C)Oc2ccc(Cl)cc2)c(=O)[nH]c1=O (stereo not given)	-9%
CN(Cc1cn(C)nc1-c1ccccc1F)CC1CCN(Cc2ccccc2)CC1	7%
Cc1csc(=O)n1CC(=O)Nc1ccc(Cl)cc1F	4%
COc1ccc2oc(=O)c(C(=O)Nc3cccc(C(=O)O)c3)cc2c1	-16%
COC(=O)c1cc(C(=O)OC)n(Cc2ccc(Br)cc2)n1	9%
CCNC(=S)N1CCn2c(nc3ccccc32)C1	-5%
CC(C)c1ccc(S(=O)(=O)NCc2ccc3c(c2)CCN3C(=O)c2ccccc2)cc1	4%
COc1ccc(S(=O)(=O)N(NC2=NS(=O)(=O)c3ccccc32)C(=O)C(C)C)cc1	17%
O=C(COC(=O)c1ccncc1)Nc1cccc(Cl)c1	-19%
O=C(CCCNS(=O)(=O)c1cccc2nsnc12)NCc1ccccc1	-4%
COc1cc(NC(=O)Cn2nnc(-c3ccccc3N)n2)cc(OC)c1	-5%
O=C(c1csnn1)N1CCC[C@@]2(CCN(c3ncccn3)C2)C1	5%
COC(=O)c1ccc(NC(=O)C2CC(=O)N(c3cc(C)ccc3C)C2)cc1 (stereo not given)	9%
CCn1c(C)cc(/C=C2\NC(=O)N(CC(=O)Nc3ccc(F)cc3)C2=O)c1C	10%
COc1ccc(C2(CNC(=O)C(=O)Nc3ccccc3C)CCCC2)cc1OC	4%
Oc1ccccc1-c1nc(NCC2CCCO2)c2ccccc2n1 (stereo not given)	-15%
COc1ccc(CNC(=O)CSc2nnc3c(n2)[nH]c2ccc(F)cc23)cc1	-8%
CC(C)c1ccc(CN(C(=O)c2ccco2)C2CCS(=O)(=O)C2)cc1 (stereo not given)	-6%
CC(=O)Nc1ccc(NC(=O)c2nc(S(=O)(=O)Cc3ccc(F)cc3)ncc2Cl)cc1	u
O=C(Nc1c2c(nn1-c1ccccc1)CS(=O)C2)c1ccc2c(c1)OCO2 (stereo not given)	-3%
COc1ccc(N(CC(=O)Nc2ccc(C)c(C)c2)S(=O)(=O)c2c(C)noc2C)cc1	-17%
CN1C=CC=C/C1=C1\SC(=S)N(c2ccccc2)C1=O	u
Cn1c(SCc2ccccc2Cl)nnc1-c1cnccn1	10%
Cc1cccc(NC(=S)Nc2cccc(C)n2)n1	15%
CCOC(=O)c1c(NC(=O)c2nn(CC)cc2Br)c(C#N)nn1-c1ccccc1	7%
CC(C)(C)OC(=O)N1CCN(c2ccc(CNC(=O)c3ccc(Cl)cc3)cc2)CC1	8%
CC1CCC(NC(=O)C2c3ccccc3C(=O)N2Cc2ccc3c(c2)OCO3)CC1 (stereo not given)	-8%
O=[N+]([O-])c1ccccc1NCc1ccc(Cl)cc1	7%
COc1cccc(CN(C)C(=O)Cn2cc(C)c(=O)[nH]c2=O)c1	12%
Cc1cc(NC(=O)CN2C(=O)NC(C)(c3ccccc3)C2=O)no1 (stereo not given)	11%
COc1ccccc1NC(=O)c1ccc[n+]([O-])c1	-2%
COc1ccc(CCNC(=O)C2CC(=O)N(CCc3ccc(C)cc3)C2)cc1OC (stereo not given)	-11%
Cc1[nH]c2ccccc2c1CC#N	12%
Clc1ccc(-c2csc(-c3ccncc3)n2)cc1	-10%
Cc1cccc(C(=O)N[C@H](C(=O)Nc2ccc(C)c(S(=O)(=O)N3CCOCC3)c2)C(C)C)c1	-4%
O=C(NCc1ccccn1)C1CCCN(S(=O)(=O)c2ccc(Br)cc2)C1 (stereo not given)	-4%
O=C(O)CCC(=O)c1cccc2ccccc12	-1%
Cc1ccc(N(CC(=O)NC2CCC(C)CC2)S(=O)(=O)c2cccnc2)cc1 (stereo not given)	-6%
CCOc1cc(NC(=O)c2ccco2)c(OCC)cc1NC(=O)COc1ccccc1	13%
COc1ccc(/C=C2/N=C(c3cccs3)OC2=O)cc1OC(C)C	-16%
Cc1ccc(S(=O)(=O)N2CCCC2C(=O)Oc2ccccc2)cc1 (stereo not given)	-5%
Cc1ccc(Cn2c(=O)c3ccccc3n3nc(C)cc23)cc1	-12%
Cc1ccc(C(C)C)c(OCCCNCc2cccnc2)c1	11%
CCn1c(CNc2cccc(Cl)c2)nnc1SCc1ccccc1	4%
COCCNC(=O)/C(C#N)=C/c1c(N2CCN(c3ccccc3)CC2)nc2ccccn2c1=O	-8%
COc1ccc(N2CCN(C(=O)CN3C(=O)COc4ccc(S(=O)(=O)N5CCC(C)CC5)cc43)CC2)cc1	12%
COc1ccc(C(=O)NCc2ccc(Cl)c(Cl)c2)cc1OC	-7%
CC1(C)Cc2c(sc(NC(=O)c3ccc(C(=O)c4ccccc4)cc3)c2C(N)=O)C(C)(C)N1	-23%
CCN(C(=O)COC(=O)c1ccco1)c1c(N)n(Cc2ccccc2)c(=O)[nH]c1=O	-13%
COc1ccc(CNC(=O)N2CCN(S(=O)(=O)c3ccccc3F)CC2)cc1	22%
Cc1ccc(SCCC(=O)Nc2nccs2)cc1	5%
NC(=O)CN1C(=O)C(=O)N(Cc2ccc(F)cc2)C1=O	2%
Later entries:
SMILES	VDR inh
c1ccc(Oc2nc(-c3ccccn3)nc3ccccc23)cc1	19%
CCOc1ccc(NC(=O)CCc2c(C)nc3nc(-c4cc(OC)cc(OC)c4)nn3c2C)cc1	3%
COc1cc(CC(=O)NC(c2ccccc2)c2ccccc2)cc(OC)c1OC	u
CCOc1ccc(-c2nc3c(c(SCC(=O)N4CCCCC4)n2)Cc2cc(C)ccc2O3)cc1	3%
CCOC(=O)CN1C(=O)S/C(=C/c2ccco2)C1=O	u
C=CCOc1ccc(Br)cc1CNC(C)(C)C	1%
CCOc1cc(/C=C2/SC(=S)N(CC3CCCO3)C2=O)ccc1O (stereo not given)	-10%
Cc1cc(=O)[nH]c(-n2ncc(C#N)c2N)n1	-20%
COc1ccc(C(=O)/C=C/C(=O)N(CC(=O)NCCC(C)C)Cc2cccs2)c(O)c1	-10%
CC1CCN(C(=O)C2CCN(S(=O)(=O)c3cccs3)CC2)CC1	0%
NC(=O)Cn1cnc2nc3n(c2c1=O)CCC3	6%
CC(NC(=O)c1ccc(F)cc1F)C1CC2CCC1C2 (stereo not given)	17%
CCCCn1c(CNC(C)=O)nc2ccccc21	-11%
CCCNC(=O)C1CCC(Cn2c(=O)c3sccc3n(CC(=O)Nc3ccccc3C)c2=O)CC1 (stereo not given)	0%
Cc1ccc(-c2cc(N)n(Cc3ccc(Cl)cc3)n2)cc1	-4%
Cc1ccc(N2CCN(S(=O)(=O)c3c(C)nc4scc(C)n4c3=O)CC2)c(C)c1	-8%
O=C(O)c1ccc(-n2ncc3c2/C(=C/c2cccc([N+](=O)[O-])c2)CC3)cc1	-4%
Cc1c(NC(=O)N(C)c2ccccc2)c(=O)n(-c2ccccc2)n1C	-17%
Cc1ccc(/C=N\NC(=O)CNC(=O)C23CC4CC(CC(C4)C2)C3)o1	-10%
CC(=O)c1cc(C#N)c(N2CCCC2)nc1C	u

As a short view, some entries already given:
SMILES	VDR inh
Cc1ccc(S(=O)(=O)N2CCCC2C(=O)Oc2ccccc2)cc1 (stereo not given)	-5%
Cc1ccc(Cn2c(=O)c3ccccc3n3nc(C)cc23)cc1	-12%
Cc1ccc(C(C)C)c(OCCCNCc2cccnc2)c1	11%
CCn1c(CNc2cccc(Cl)c2)nnc1SCc1ccccc1	4%
COCCNC(=O)/C(C#N)=C/c1c(N2CCN(c3ccccc3)CC2)nc2ccccn2c1=O	-8%
COc1ccc(N2CCN(C(=O)CN3C(=O)COc4ccc(S(=O)(=O)N5CCC(C)CC5)cc43)CC2)cc1	12%
COc1ccc(C(=O)NCc2ccc(Cl)c(Cl)c2)cc1OC	-7%
CC1(C)Cc2c(sc(NC(=O)c3ccc(C(=O)c4ccccc4)cc3)c2C(N)=O)C(C)(C)N1	-23%
CCN(C(=O)COC(=O)c1ccco1)c1c(N)n(Cc2ccccc2)c(=O)[nH]c1=O	-13%
COc1ccc(CNC(=O)N2CCN(S(=O)(=O)c3ccccc3F)CC2)cc1	22%
Cc1ccc(SCCC(=O)Nc2nccs2)cc1	5%
NC(=O)CN1C(=O)C(=O)N(Cc2ccc(F)cc2)C1=O	2%
c1ccc(Oc2nc(-c3ccccn3)nc3ccccc23)cc1	19%
CCOc1ccc(NC(=O)CCc2c(C)nc3nc(-c4cc(OC)cc(OC)c4)nn3c2C)cc1	3%
COc1cc(CC(=O)NC(c2ccccc2)c2ccccc2)cc(OC)c1OC	u

(listing goes on)
SMILES	VDR inh
Cc1nc2cc(NC(=O)N3CC4(C)CC3CC(C)(C)C4)ccc2n1C (stereo not given)	-21%
Cc1cc(S(=O)(=O)N2CCCC2)c(C)s1	-8%
COc1ccccc1CN1CC(C(=O)NCc2c(F)ccc(C)c2F)CCC1=O (stereo not given)	14%
O=C(CC12CC3CC(CC(Br)(C3)C1)C2)NCc1ccccc1	-3%
COc1ccc(CNC(=O)CN2C(=O)CSc3ccc(S(=O)(=O)N4CCC(C)CC4)cc32)cc1	8%
Cc1cc(NC(=O)CSCC(=O)OCc2nnc(-c3ccc(F)cc3)o2)no1	4%
COc1ccc(NC(=O)CN2C(=O)C(C)(C)c3cc(S(=O)(=O)N4CCCCC4)ccc32)cc1Cl	11%
Cc1sc(NC(=O)c2ccco2)c(CN2CCCCC2)c1C	-4%
O=C(NNC(=O)c1cc(O)c(O)c(O)c1)NC1CCCCC1	-3%
N#Cc1c(-c2cccs2)nc(SCC(=O)c2ccc(Br)cc2)[nH]c1=O	-1%
O=C(Cc1ccccc1)Nc1c(C(=O)N2CCOCC2)cnn1-c1ccccc1	24%
Cc1ccc(-c2nc(CSCC(=O)N3CCCC3)c(C)o2)cc1	6%
Cc1cc(C)c(S(=O)(=O)NCC2CCC(C(=O)NCCCN3CCOCC3)CC2)c(C)c1 (stereo not given)	-2%
Clc1ccc(-c2nnc(-c3ccc(Br)o3)o2)c(Cl)c1	-8%
CCC(CC)NCC(O)COc1ccc(Br)cc1 (stereo not given)	-19%
CCOc1ccc(NC(=O)COc2ccc(S(=O)(=O)N3CCCC3)cc2)cc1	7%
COc1ccc(-n2c(SCC(=O)N3CCOCC3)nc3ccccc3c2=O)cc1	-3%
Clc1ccc(CO/N=C2\CCCc3nonc32)c(Cl)c1	-13%
O=C(Nc1nnc(Cc2ccccc2)s1)C1CCC1	-22%
CCC(=O)NC1CC2CCCC(C1)N2Cc1ccc(C)cc1 (stereo not given)	-5%
COc1ccccc1NC(=O)c1c(NC(=O)c2ccccc2Cl)sc2c1CCC2	-3%
CNC(=O)CCn1nc(-c2ccc(Cl)cc2)c2ccccc2c1=O	-11%
CC(=O)c1cc(F)ccc1OCC(=O)N1CCN(c2ccc(F)cc2)CC1	4%
CC(NC(=S)NC(=O)c1cccs1)c1ccccc1 (stereo not given)	u

An excerpt, so the mix of outcomes need not match the whole.
